Marburg entry inh = blocks Marburg virus binding to or entry into cells; Marburg virus pseudotyped entry inhibition, cell reporter; control for the full effect not named in the record; about a third of the inactives were read at about 46 µM; Potency, µM (top dose mostly 37.8 µM), for the others: at the highest dose activity change, negative = inhibition, usual class: inhibitors; hit rate 1.8% among 300,000; AID 540276; active = well fitted inhibition curve with a large enough effect; inconclusive = small, poorly fitted or top-dose-only effect, or effect the other way; inactive = flat fitted curve, though single readings scatter; tested in HEK293 cells; about a fifth of its hits are not listed in these tables; also: % is scaled to controls: 0 for no effect and ±100 for the full control effect; luciferase read-out
Cruzain inh noDet = cruzain (T. cruzi) inhibition without detergent | purified cruzain, Z-FR-AMC fluorescence, no detergent | Potency, µM, inactives show max response, negative = inhibition, most hits filed as inhibitors | hit rate 2.3% among 200,000 | AID 1476; active = well fitted curve in the direction sought with a large enough effect; inconclusive = small, poorly fitted or top-dose-only effect, or another doubt; inactive = no such curve, though single readings can be large; an effect the other way counts as inactive or inconclusive;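 also: plate controls were enzyme without inhibitor for no effect and buffer without enzyme for full effect; nearly all actives have a fitted effect of over 40% in size; top concentration of the series not given in the record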
Target sequence (P25779 123-467 limits assumed): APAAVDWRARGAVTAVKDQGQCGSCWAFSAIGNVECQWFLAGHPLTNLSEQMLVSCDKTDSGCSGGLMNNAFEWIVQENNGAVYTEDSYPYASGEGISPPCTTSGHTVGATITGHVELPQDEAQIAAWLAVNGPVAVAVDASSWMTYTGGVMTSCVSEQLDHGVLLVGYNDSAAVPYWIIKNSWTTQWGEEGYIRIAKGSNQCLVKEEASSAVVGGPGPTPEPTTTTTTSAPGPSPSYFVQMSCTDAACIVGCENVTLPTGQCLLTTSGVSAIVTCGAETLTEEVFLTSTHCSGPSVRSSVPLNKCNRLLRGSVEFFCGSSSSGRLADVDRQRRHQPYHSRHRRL
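Purified cruzain at 1.5 nM, pre-incubated 15 min with compound at room temperature in 100 mM sodium acetate pH 5.5, 5 mM DTT, 0.00005% Triton X-100. Reaction started with 2 uM Z-FR-AMC; AMC fluorescence increase over 60 s gives rate.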
StopGo reporter = FMDV 2A StopGo reporter, luciferase signal. hit rate 1.2% among 410,000. human cells with a luciferase reporter of 2A StopGo recoding; control for the full effect not named in the record. AID 1159524. Potency, µM (titrated, usually from 57.9 µM), for the others: at the highest dose signal change, negative = less light; active = well fitted falling curve with a large enough effect; inconclusive = small, poorly fitted or top-dose-only effect; inactive = no such curve, though single readings can be large or run the other way; tested in HEK293T cells; also: % is scaled to controls: 0 for no effect and ±100 for the full control effect; nearly all actives have a fitted effect of over 45% in size; luciferase light after 4 h
Cruzain Triton = inhibitors of Trypanosoma cruzi cruzain with detergent | hit rate 0.43% among 200,000 | purified cruzain, Z-FR-AMC fluorescence, 0.01% Triton | AID 1478 | P25779 | Potency, µM, inactives show max response, negative = inhibition, actives largely listed as inhibitors; active = well fitted curve in the direction sought with a large enough effect; inconclusive = small, poorly fitted or top-dose-only effect, or another doubt; inactive = no such curve, though single readings can be large; an effect the other way counts as inactive or inconclusive;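 also: plate controls were neutral wells for no effect and buffer without enzyme for full effect; nearly all actives have a fitted effect of over 40% in size; top concentration of the series not given in the record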
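Detergent-containing arm of a paired screen for aggregation-based inhibition: 0.01% Triton X-100 present. Cruzain at 1.5 nM cleaved 2 uM Z-FR-AMC at pH 5.5 with 5 mM DTT; AMC fluorescence gain over 60 s measured activity.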
RE007 growth inh = less growth of the S. pombe RE007 Vpr strain; S. pombe RE007 Vpr strain, BacTiter-Glo ATP luminescence, 24 h; control for the full effect not named in the record; Potency, µM (highest dose often 92.2 µM), inactives show at the highest dose activity change, negative = less growth; hit rate 0.21% among 360,000; AID 651644; active = well fitted falling curve with a large enough effect; inconclusive = small, poorly fitted or top-dose-only effect; inactive = no such curve, though single readings can be large or run the other way;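 also: % is scaled to controls: 0 for no effect and ±100 for the full control effect; nearly all actives have a fitted effect of over 50% in size; the assay follows cell death caused by Vpr and the record does not say whether a fall means rescue or toxicity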
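Fission yeast strain RE007, carrying one chromosomally integrated HIV-1 vpr copy, was seeded at OD 0.01 in PMG+AL medium with 23 nL pinned compound. After 24 h at 30 °C and 99% humidity, viability was read by BacTiter-Glo luminescence.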
NS1 function inh = inhibitors of influenza NS1 protein function. AID 2326. Potency, µM (titrated, usually from 46.1 µM), inactives show at the top dose activity, positive = more growth. hit rate 0.4% among 270,000. S. cerevisiae slowed by influenza A NS1, growth recovery by OD600; also: actives are rising curves; nearly all actives have a fitted effect of over 50% in size
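Read-out: OD600 growth recovery of NS1-expressing budding yeast. Cells grown overnight at 30C in -URA glucose medium, washed, resuspended and diluted 1:100 in 2% galactose assay medium, pH 6.0. Same strain lacking NS1 served as positive control.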
Lassa entry inh = inhibitors of Lassa virus binding or cell entry; hit rate 1.2% among 300,000; Potency, µM (titrated, usually from 37.9 µM), inactives show at the top dose activity change, negative = inhibition, most hits filed as inhibitors; Lassa virus pseudotype entry inhibition, cell reporter; control for the full effect not named in the record; AID 540256; active means well fitted inhibition curve with a large enough effect; inconclusive means small, poorly fitted or top-dose-only effect, or effect the other way; inactive means flat fitted curve, though single readings scatter; tested in HEK293 cells; also: % is scaled to controls: 0 for no effect and ±100 for the full control effect; nearly all actives have a fitted effect of over 50% in size; luciferase read-out
SARS PLpro yeast = blocks SARS-CoV papain-like protease in a yeast assay. hit rate 0.19% among 330,000. Potency, µM (doses to about 32.9 µM), for inactives: at the highest dose activity, positive = growth rescue. S. cerevisiae expressing SARS-CoV PLpro, growth rescue; control for the full effect not named in the record. AID 485353; also: 0% is about no effect; nearly all actives have a fitted effect of over 55% in size; growth read by luminescence after 48 h
* hit, by the source's call; & = joins results of further samples; [ ] = another dose, or the depositor's remark. Unless noted, calls follow the shape of the dose curve; as a rule, active means well fitted rising curve with a large enough effect; inconclusive means small, poorly fitted or top-dose-only effect; inactive means no such curve, though single readings can be large or run the other way. Potency is read from the fitted curve at half-maximal effect.

Screening CCC1=NN2C(=N)/C(=C\c3cccn3-c3ccc(Cl)cc3)C(=O)N=C2S1 returned Marburg entry inh 5.6%[46.1 µM], StopGo reporter -18.3%, RE007 growth inh -3.4%, Lassa entry inh -11.7% and SARS PLpro yeast -4.1%.
For C=CCn1c(O)c(C(C)=NCCN2CCN(C(=S)NC)CC2)c(=O)[nH]c1=O the results were Marburg entry inh -0.3%, StopGo reporter 11.9%, RE007 growth inh 27.6%, NS1 function inh 0.8%, Lassa entry inh 1.0% and SARS PLpro yeast 0.7%.
`CCN(CC)P(=O)(c1ccccc1)c1c(C)nc2ccccn12` (stereo not given) gave Marburg entry inh -1.9%[46.1 µM], StopGo reporter 3.5%, RE007 growth inh -12.5%, NS1 function inh 5.8%, Lassa entry inh 0.2% and SARS PLpro yeast 1.8%.
`Cc1ccc(S(=O)(=O)N(C)C)cc1NC(=O)c1cncc(Br)c1` gave Marburg entry inh inconclusive, Cruzain inh noDet 3.5%, StopGo reporter inconclusive, Cruzain Triton -6.3%, RE007 growth inh -7.4%, NS1 function inh 3.5%, Lassa entry inh inconclusive and SARS PLpro yeast 17.0%.
Screening O=C1CSc2ccc(S(=O)(=O)CCC(=O)NC3CCCCC3)cc2N1 returned StopGo reporter -11.0%, RE007 growth inh 6.9%, NS1 function inh 7.0% and SARS PLpro yeast 2.3%.
For O=C(CSc1nnc(-c2ccccc2)o1)c1cccc([N+](=O)[O-])c1 the results were Marburg entry inh 3.8%[46.1 µM], Cruzain inh noDet -14.7%, StopGo reporter -12.9%, Cruzain Triton -0.9% and Lassa entry inh 1.4%[46.1 µM].
CC(OC(=O)c1ccccc1NCCO)C(=O)NC1CCCCC1C (stereo not given) was read as Marburg entry inh -0.1%, StopGo reporter 0.0%, RE007 growth inh -14.1%, Lassa entry inh 1.0% and SARS PLpro yeast 4.3%.
Screening COC(=O)N(c1ccc(OC)cc1)P1(=S)OCCC(C)O1 (stereo not given) returned Marburg entry inh 8.8%, Cruzain inh noDet 4.0%, StopGo reporter -30.7%, Cruzain Triton 5.1%, RE007 growth inh 3.1%, NS1 function inh -69.8%, Lassa entry inh -0.2% and SARS PLpro yeast -0.4%.
For COc1ccc(/C(O)=C2/C(=O)C(=O)N(Cc3cccnc3)C2c2ccncc2)cc1F (stereo not given) the results were Marburg entry inh -0.4%&16.7%, Cruzain inh noDet -8.2%, StopGo reporter 3.3%, Cruzain Triton -2.3%, RE007 growth inh -15.6%, NS1 function inh -0.2%, Lassa entry inh 12.1% and SARS PLpro yeast -5.2%.
CN(C)c1nc(N(C)C)n(C(=O)c2ccc(F)cc2)n1 was read as Marburg entry inh 11.1%[46.1 µM], StopGo reporter 19.5%, RE007 growth inh -8.5%, NS1 function inh -0.8%, Lassa entry inh -8.9%[46.1 µM] and SARS PLpro yeast -0.2%.
For COc1cccc(Nc2nc3ccccc3n2C(C)C)c1 the results were Marburg entry inh 17.6%, Cruzain inh noDet -0.6%, StopGo reporter -4.8%, Cruzain Triton -1.2%, RE007 growth inh -6.4%, NS1 function inh -11.8%, Lassa entry inh 6.6% and SARS PLpro yeast 19.5%.
O=C(c1ccccc1)N(Cc1ccccc1)Cc1ccccc1 was read as StopGo reporter -15.6%, RE007 growth inh -16.3%, NS1 function inh -12.1% and SARS PLpro yeast -1.8%.
`Cn1c(NCc2cccs2)nc2ccccc21` gave Marburg entry inh inconclusive, Cruzain inh noDet -1.9%, StopGo reporter 47.3%[activator], Cruzain Triton 9.3%, RE007 growth inh -4.4%, NS1 function inh -0.5%, Lassa entry inh 19.6% and SARS PLpro yeast 2.8%.
Screening Cc1ccc(-c2ccc(/C=N/n3cnnc3)o2)cc1 returned Marburg entry inh inconclusive, StopGo reporter 13.8%, RE007 growth inh 7.3%, NS1 function inh -3.1%, Lassa entry inh -20.8%[46.1 µM] and SARS PLpro yeast -1.4%.

Fetched by structure from the entries so far:
`Cn1c(NCc2cccs2)nc2ccccc21` gave Marburg entry inh inconclusive, Cruzain inh noDet -1.9%, StopGo reporter 47.3%[activator], Cruzain Triton 9.3%, RE007 growth inh -4.4%, NS1 function inh -0.5%, Lassa entry inh 19.6% and SARS PLpro yeast 2.8%.
CC(OC(=O)c1ccccc1NCCO)C(=O)NC1CCCCC1C (stereo not given) was read as Marburg entry inh -0.1%, StopGo reporter 0.0%, RE007 growth inh -14.1%, Lassa entry inh 1.0% and SARS PLpro yeast 4.3%.
O=C(c1ccccc1)N(Cc1ccccc1)Cc1ccccc1 was read as StopGo reporter -15.6%, RE007 growth inh -16.3%, NS1 function inh -12.1% and SARS PLpro yeast -1.8%.

In the list so far, two have fluorine:
For COc1ccc(/C(O)=C2/C(=O)C(=O)N(Cc3cccnc3)C2c2ccncc2)cc1F (stereo not given) the results were Marburg entry inh -0.4%&16.7%, Cruzain inh noDet -8.2%, StopGo reporter 3.3%, Cruzain Triton -2.3%, RE007 growth inh -15.6%, NS1 function inh -0.2%, Lassa entry inh 12.1% and SARS PLpro yeast -5.2%.
CN(C)c1nc(N(C)C)n(C(=O)c2ccc(F)cc2)n1 was read as Marburg entry inh 11.1%[46.1 µM], StopGo reporter 19.5%, RE007 growth inh -8.5%, NS1 function inh -0.8%, Lassa entry inh -8.9%[46.1 µM] and SARS PLpro yeast -0.2%.

Source: PubChem BioAssay

Compounds were not picked by outcome, and some 4.7% of all compounds hit somewhere here.
